LANA-H2A inh = blocks KSHV LANA binding to histone H2A/H2B; Q9QR71; cell-free LANA-H2A/H2B peptide, fluorescence polarization; inhibition, % (test concentration not listed); actives 0.6% (n = 320,000); AID 2629; in the data active = inhibition mostly above about 10%, no sharp cut-off; inactive = mostly below about 6.7%;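 note: stock transfer was 7.5 nL into about 10 µL; 0% = median of vehicle wells and 100% = median of positive control wells; one replicate is shown; the record names a cut of 25% in any replicate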
Ecoli growth = inhibitors of Escherichia coli growth; OD600 absorbance (concentration not given with the values); actives 0.21% (n = 330,000); OD600, 23 h; stronger effect = lower value;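 active = OD600 absorbance below the run mean of sample wells minus 3.6 SD, in any replicate, cut at about 0.56 in these data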;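 note: stock transfer was 300 nL into about 60 µL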
HNF4A DNA FP = change in binding of human HNF4 alpha to DNA. activity change, % at 10 µM. HNF4a-FITC DNA binding, fluorescence polarization, 1 h. P41235. AID 1224865. actives 0.3% (n = 360,000); in the data active = activity change above about 30%, passing the limit was not always enough;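 note: controls were the assay level and a saturating level of protein; the project sought stronger binding though the title names inhibitors; some compounds called inactive have numbers as strong as hits; positive values seem to mean higher polarization but the record does not say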
ALR H2O2 inh = inhibitors of human sulfhydryl oxidase ALR; P55789; purified ALR, DTT oxidation, H2O2 HRP-luminol luminescence; inhibition, % (test concentration not listed); actives 3.8% (n = 290,000); AID 485317;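 active = mean and each replicate at 75% or more; inconclusive = only one of the two met; inactive = neither met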;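 note: stock transfer was 7.5 nL into about 7.5 µL; 0% = neutral wells and 100% = wells with inactivated enzyme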
Target sequence (P55789 whole entry, looked up): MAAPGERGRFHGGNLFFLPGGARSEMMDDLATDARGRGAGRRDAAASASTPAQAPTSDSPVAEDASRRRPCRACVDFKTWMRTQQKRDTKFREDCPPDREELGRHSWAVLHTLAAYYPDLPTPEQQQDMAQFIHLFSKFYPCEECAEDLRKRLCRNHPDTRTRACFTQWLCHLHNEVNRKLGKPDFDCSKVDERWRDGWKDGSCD
FGF22 binding = shifts melting point of recombinant human FGF22 | Q9HCT0 | recombinant FGF22 thermal shift, SYPRO orange fluorescence; percent of sucrose octasulfate shift, DMSO zero | calls only at 9.99 µM | actives 1.5% (n = 340,000) | AID 651658;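 active = melting point raised past a set limit in the mean and every replicate; inconclusive = no clear call; three in four hits are not shown here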
UCH37 inh = blocks the human deubiquitinase UCH37; inhibition, % (test concentration not listed); AID 588478; actives 0.33% (n = 330,000); purified proteasome/UCH37, Ub-AMC cleavage fluorescence;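 active = mean of two replicates above 20%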;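 note: 0% = compound-free wells with enzyme and 100% = wells lacking proteasome; stock transfer was 100 nL into about 20 µL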
Target sequence (Q9Y5K5 whole entry, looked up): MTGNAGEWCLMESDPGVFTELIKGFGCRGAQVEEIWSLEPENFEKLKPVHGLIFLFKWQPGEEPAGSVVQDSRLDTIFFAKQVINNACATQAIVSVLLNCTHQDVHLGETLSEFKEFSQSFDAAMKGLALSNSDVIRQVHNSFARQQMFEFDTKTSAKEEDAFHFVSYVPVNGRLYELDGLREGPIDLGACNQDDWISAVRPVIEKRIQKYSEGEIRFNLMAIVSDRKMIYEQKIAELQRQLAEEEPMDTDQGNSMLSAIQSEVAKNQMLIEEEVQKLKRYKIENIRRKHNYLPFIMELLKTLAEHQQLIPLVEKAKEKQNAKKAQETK
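Test system – human UCH37 enzyme supplied as purified proteasome complex · Incubation – 30 min preincubation with enzyme, 25 min cleavage at room temperature · Detection – AMC fluorescence from Ub-AMC cleavage, excitation 355 nm, emission 460 nm · Benchmarks – no-proteasome wells (full inhibition) and compound-free wells (no inhibition)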
Beta2AR agonist = human beta-2 adrenergic receptor agonism by FAP. actives 0.43% (n = 340,000). response, % (test concentration not listed). P07550. Am2.2-beta2AR cells, FAP receptor internalization, flow cytometry; reference of the scale not given here;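 active = response above a set limit, near 3 SD of response in nonfluorescent compounds, cut at about 42% in these data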;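 note: stock transfer was 100 nL into about 11 µL; a reference agonist was the positive control; negative values mostly stem from fluorescent compounds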
Target sequence (P07550 whole entry, looked up): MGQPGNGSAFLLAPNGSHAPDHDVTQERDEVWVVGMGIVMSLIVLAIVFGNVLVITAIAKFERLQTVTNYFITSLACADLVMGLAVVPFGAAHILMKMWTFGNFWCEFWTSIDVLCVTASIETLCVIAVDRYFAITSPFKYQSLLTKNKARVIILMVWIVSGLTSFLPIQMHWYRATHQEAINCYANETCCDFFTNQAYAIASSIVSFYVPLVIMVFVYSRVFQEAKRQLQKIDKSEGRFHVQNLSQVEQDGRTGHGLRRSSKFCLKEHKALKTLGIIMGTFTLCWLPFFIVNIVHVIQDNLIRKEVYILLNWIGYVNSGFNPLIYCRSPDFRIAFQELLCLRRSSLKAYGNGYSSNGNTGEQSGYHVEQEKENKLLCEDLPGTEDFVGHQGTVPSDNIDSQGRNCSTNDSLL
* = called active by the depositor; i = inactive; u = inconclusive; x = not tested or not shown.

ALR H2O2 inh,UCH37 inh,Ecoli growth,Beta2AR agonist,HNF4A DNA FP,LANA-H2A inh,FGF22 binding,structure
-5.8,-2.5,0.658,-4.0,-3.5,0.8,x,CN(CC(=O)O/N=C(\N)c1ccccn1)S(=O)(=O)c1ccc(Br)cc1
x,-1.4,0.689,2.4,5.3,x,i,N#Cc1ccc(Oc2ccc(C#N)c(C#N)c2)cc1C#N
-1.7,2.0,0.685,3.7,-4.3,-1.1,i,Cc1ccc(NC(=O)CCN2C(=O)C3C4CCC(C4)C3C2=O)cc1Cl (centres undefined)
x,-4.8,0.756,-0.1,-1.0,x,x,COc1cc(C2C(C#N)=C(N)Oc3cc(C)n(CC4CCCO4)c(=O)c32)cc2c1OCO2 (centres undefined)
x,5.1,0.708,-6.2,-3.6,-2.1,i,CCCCN(C(=O)/C=C/c1ccco1)c1c(N)n(Cc2ccccc2)c(=O)[nH]c1=O
-6.7,0.8,0.69,-3.9,-2.9,2.0,x,CC(C)(C)C(=O)NC(=S)Nc1ccccc1C(=O)Nc1ccccc1
x,2.6,0.653,-1.7,-2.7,-2.2,x,O=C(COC(=O)C1(c2ccccc2F)CCCC1)NCc1ccc2c(c1)OCO2
0.8,1.6,0.74,-0.4,-2.9,-1.6,i,Cc1cc2ncn(-c3ncnc4sc5c(c34)CCC(C)C5)c2cc1C (centres undefined)
x,2.4,0.7,-3.8,2.8,x,i,COc1ccc(NC(=O)c2cc(S(=O)(=O)N3CCCCC3)ccc2C)cc1S(=O)(=O)N1CCOCC1
-0.1,2.2,x,-1.2,0.5,4.5,i,C[C@@H]1CCC[C@@]2(O[C@H](CCO)C[C@@H](O)[C@@H]2O)O1
-1.1,2.5,0.71,2.3,1.3,-0.9,x,COc1ccc(NC(=S)N2CCC(N(C)CCN3CCOCC3)CC2)cc1Cl
x,2.2,0.699,-0.6,-0.5,x,x,Cc1ccc(NC(=O)c2csc(-c3ccccc3)c2C)cc1
-1.5,1.8,0.799,-1.7,-1.0,-0.5,i,Cc1cccc(CNc2ncnc3ccc(-c4ccc5c(c4)OCO5)cc23)c1
-1.6,9.2,0.661,7.7,1.8,6.7,i,CCOC(=O)C1CCCN(C2=NC(=O)/C(=C/c3ccc(OC)cc3)S2)C1 (centres undefined)
-1.3,0.9,x,11.8,5.5,2.2,i,COC(=O)[C@H](Cc1ccccc1)N(C)S(=O)(=O)c1cccc(S(=O)(=O)N(C)[C@@H](Cc2ccccc2)C(=O)OC)c1
0.8,3.3,0.747,x,x,-1.8,x,Cc1nn(-c2ccccn2)c2c1C(c1c(F)cccc1Cl)C1=C(N2)c2ccccc2C1=O (centres undefined)
x,1.3,0.666,2.5,0.7,-4.7,x,CCc1c(C)nc2ncnn2c1NCCc1ccccc1
-24.7,4.2,0.717,12.0,1.9,5.9,x,COc1ccc(N=C2C(=O)N3c4c(cccc42)C(C)=CC3(C)C)cc1
-3.8,2.4,0.677,13.0,-1.0,-1.7,i,Cc1ccc2sc(N(CCCN(C)C)C(=O)c3ccc(S(=O)(=O)N4CCCCCC4)cc3)nc2c1C
5.0,1.7,0.666,-1.6,-2.2,2.0,i,Cc1cccc(NS(=O)(=O)c2coc(C(N)=O)c2)c1C
-4.0,-0.2,x,2.9,-0.2,-1.7,i,COCCN1C(=O)N[C@@H](c2cccs2)C(C(=O)OC)=C1C
0.8,1.8,0.65,38.0,-0.7,-3.1,x,O=C(Nc1nc2ccc(S(=O)(=O)N3CCCC3)cc2s1)C1CCCCC1
x,-0.7,0.695,-10.2,-0.1,4.4,i,OCCC1CN(CCCc2ccccc2)CCN1Cc1ccccc1 (centres undefined)
-4.3,5.4,0.676,-2.6,-1.7,5.3,i,CCN(CC)S(=O)(=O)c1ccc(Cl)c(NC(=O)COC(=O)C2CCCCC2)c1

Two successive records from above, quoted:
ALR H2O2 inh,UCH37 inh,Ecoli growth,Beta2AR agonist,HNF4A DNA FP,LANA-H2A inh,FGF22 binding,structure
x,-0.7,0.695,-10.2,-0.1,4.4,i,OCCC1CN(CCCc2ccccc2)CCN1Cc1ccccc1 (centres undefined)
-4.3,5.4,0.676,-2.6,-1.7,5.3,i,CCN(CC)S(=O)(=O)c1ccc(Cl)c(NC(=O)COC(=O)C2CCCCC2)c1

Other compounds follow:
ALR H2O2 inh,UCH37 inh,Ecoli growth,Beta2AR agonist,HNF4A DNA FP,LANA-H2A inh,FGF22 binding,structure
-8.7,0.1,0.681,-0.7,2.0,-1.8,i,Cc1ccccc1-c1nc(CN2CCC(C(=O)NC3CC3)CC2)c(C)o1
-24.4,-4.2,0.662,-12.9,4.9,-6.8,i,CCN1CC(CN(C)Cc2nc(-c3ccc(C(F)(F)F)cc3)oc2C)CC1=O (centres undefined)
u,0.4,0.679,-10.4,-4.5,-9.7,i,COc1ccc(N2CCN(CCCNC(=O)Cn3c(=O)c4cccn4c4ccccc43)CC2)cc1
-4.5,2.5,0.652,-3.4,2.5,-2.6,i,O=C(Nc1cccc(S(=O)(=O)N2CCOCC2)c1)C1CCCC1
-4.3,-0.5,x,-2.0,-0.2,-6.1,x,c1ccc2c(C3CCO3)cccc2c1 (centres undefined)
-19.1,0.9,0.678,-0.5,-1.4,0.4,i,Cc1cc(C)n(CC(C)NC(=O)c2cc(COc3c(F)cccc3F)on2)n1 (centres undefined)
-3.0,1.1,0.678,-6.5,7.5,7.2,x,CC(=O)Nc1nc(S(=O)(=O)c2ccc(C)cc2)c(Cl)s1
-15.5,4.8,0.657,9.2,-2.4,2.0,x,Cn1nnnc1SCC(=O)N1c2ccccc2CCc2ccccc21
43.5,5.1,0.619,1.9,0.9,0.6,i,O=C(Nc1cccc(F)c1)NC1CCCCCCC1
-8.3,-1.4,0.655,0.4,1.8,4.4,i,Cc1ccc(Cn2c(N3CCN(C)CC3)nc3c2c(=O)[nH]c(=O)n3C)cc1
-1.7,0.7,0.651,-9.4,4.6,-0.9,i,CC(=O)NNC(=O)CC(=O)Nc1nc(C23CC4CC(CC(C4)C2)C3)cs1
-7.0,2.6,0.683,-11.8,3.9,0.2,x,O=C(CSCc1n[nH]c(=O)[nH]1)NCCOc1cccc(Oc2ccccc2)c1
35.0,0.1,0.719,6.7,-0.5,1.1,x,CCOC(=O)C[n+]1c(C)sc2ccc(OC)cc21
11.8,-3.3,0.744,-7.3,4.1,1.8,x,O=C(O)CSCC(=O)Nc1ccc(S(=O)(=O)N2CCCCC2)cc1
20.6,6.5,0.612,1.6,0.6,-1.6,i,Cc1ccc(/C=C2/N=C(c3ccccc3)NNC2=O)cc1
-0.9,7.0,0.714,4.2,-0.1,3.0,x,CN(Cc1ccccc1)S(=O)(=O)c1cccc2cccnc12
x,-12.8,0.482*,4.6,-1.1,-0.5,i,CNc1nc(NCc2ccccc2)c2ccccc2n1
-17.7,-21.3,0.705,-15.2,5.7,-1.9,x,Cc1cccc(NS(=O)(=O)c2ccc(Oc3ccccc3)cc2)n1
17.6,3.6,0.692,-4.2,-3.0,4.5,i,COc1ccc(CNC(=O)CSCc2c(F)cccc2Cl)cc1
1.8,5.4,0.683,10.7,3.6,1.0,i,CCCCCOC(=O)C1=C(C)NC(=O)NC1c1ccccc1 (centres undefined)
-2.0,1.5,0.721,2.7,2.4,0.1,i,Cc1c(OC(C)C(=O)NCCN2CCOCC2)ccc2c(-c3ccccc3)cc(=O)oc12 (centres undefined)
1.9,3.3,0.667,-10.0,2.8,-1.4,i,COc1ccc(CNC(=O)c2cc3ccccc3oc2=O)cc1
22.3,7.8,0.714,-7.4,-2.4,9.8,i,COC(=O)C1=C(C)N(CCc2ccc(OC)c(OC)c2)C(=O)/C1=C\c1ccc(O)cc1
-3.2,2.8,0.79,-4.3,1.2,-1.6,x,CCOC(=O)N1CCN(C(=O)c2ccc(N3C(=O)c4ccccc4C3=O)cc2)CC1

Arranged by count of non-hydrogen atoms (lowest first): some entries from above
ALR H2O2 inh,UCH37 inh,Ecoli growth,Beta2AR agonist,HNF4A DNA FP,LANA-H2A inh,FGF22 binding,structure
35.0,0.1,0.719,6.7,-0.5,1.1,x,CCOC(=O)C[n+]1c(C)sc2ccc(OC)cc21
x,-12.8,0.482*,4.6,-1.1,-0.5,i,CNc1nc(NCc2ccccc2)c2ccccc2n1
-0.9,7.0,0.714,4.2,-0.1,3.0,x,CN(Cc1ccccc1)S(=O)(=O)c1cccc2cccnc12
1.9,3.3,0.667,-10.0,2.8,-1.4,i,COc1ccc(CNC(=O)c2cc3ccccc3oc2=O)cc1
11.8,-3.3,0.744,-7.3,4.1,1.8,x,O=C(O)CSCC(=O)Nc1ccc(S(=O)(=O)N2CCCCC2)cc1
22.3,7.8,0.714,-7.4,-2.4,9.8,i,COC(=O)C1=C(C)N(CCc2ccc(OC)c(OC)c2)C(=O)/C1=C\c1ccc(O)cc1

The list goes on.
ALR H2O2 inh,UCH37 inh,Ecoli growth,Beta2AR agonist,HNF4A DNA FP,LANA-H2A inh,FGF22 binding,structure
-11.5,-0.5,0.648,-6.5,-0.6,10.1,x,Cn1nc([N+](=O)[O-])nc1Oc1ccc2ccccc2c1
4.1,1.1,0.756,10.9,1.4,-3.0,i,CCC(Oc1ccccc1)C(=O)Nc1cc(C)on1 (centres undefined)
x,4.7,0.711,0.3,0.1,x,x,COCCNc1nc(C(C)(C)C)nc2c1nnn2Cc1ccccc1Cl
x,-1.9,0.723,17.8,2.0,3.0,i,COC(=O)c1ccc(CSc2ccc3nnc(-c4cccc(F)c4)n3n2)o1
-25.4,1.4,0.57,0.8,1.1,0.7,i,CCN(C(=O)CSc1ncn[nH]1)c1c(N)n(Cc2ccccc2)c(=O)[nH]c1=O
-1.9,-1.3,0.73,-2.2,-0.7,-3.1,i,CCOc1ccc(CNC2CCCCCCC2)cc1OC
53.9,-0.6,0.719,-2.1,-1.2,-5.1,i,CCOc1ccc(-c2cn[nH]c2N)cc1
38.7,1.3,0.709,6.7,-4.2,-2.0,i,CC1CCN(CC(=O)N2CCN(c3ccccc3)CC2)CC1
-7.2,0.4,0.638,5.6,1.9,1.8,i,COC(=O)c1ccccc1S(=O)(=O)N1CCC(C(=O)NC2=NCCS2)CC1
-10.3,-0.6,0.696,-2.2,-0.3,10.8,i,Cc1cccnc1NC(=O)Cn1c(=O)oc2ccccc21
9.1,x,x,0.9,0.6,4.0,i,Oc1ccccc1-n1c(-c2ccccc2)ccc1-c1ccccc1
1.8,13.5,0.654,x,x,-0.2,i,Cc1cccc(OCC(=O)N=Nc2c(O)[nH]c3ccc([N+](=O)[O-])cc23)c1
-14.4,0.9,0.648,0.3,0.6,5.8,x,COc1ccccc1NC(=O)c1ccc(C)s1
1.4,1.9,0.708,0.0,5.7,0.3,i,Cc1cc(C)c(NC(=O)COC(=O)c2ccncc2)c(C)c1
-31.0,-16.3,0.68,-1.8,1.9,2.4,i,COCCNC(=O)CCCn1c(=O)c2cc(OC)c(OC)cc2n(CC(=O)Nc2ccc(C)c(F)c2)c1=O
-3.5,4.7,0.672,1.8,1.8,-0.7,i,COc1ccc(CCC(=O)OCC(=O)NCc2ccc3c(c2)OCO3)cc1

Part of the list above with just HNF4A DNA FP and LANA-H2A inh.
SMILES	HNF4A DNA FP	LANA-H2A inh
Cc1c(OC(C)C(=O)NCCN2CCOCC2)ccc2c(-c3ccccc3)cc(=O)oc12 (centres undefined)	2.4	0.1
COc1ccc(CNC(=O)c2cc3ccccc3oc2=O)cc1	2.8	-1.4
COC(=O)C1=C(C)N(CCc2ccc(OC)c(OC)c2)C(=O)/C1=C\c1ccc(O)cc1	-2.4	9.8
CCOC(=O)N1CCN(C(=O)c2ccc(N3C(=O)c4ccccc4C3=O)cc2)CC1	1.2	-1.6

Screening data (PubChem BioAssay)

A portion of the library; count on the stated rates, not on these rows.
